Source: PubChem BioAssay
TRPV1 potentiator – enhances activation of the human vanilloid receptor TRPV1. Q8NER1. TRPV1-expressing cells, Fluo-8 calcium influx, capsaicin EC20 potentiation; host cell line not named in the record; control for the full effect not named in the record. potentiation, % at 8.33 µM. 320,000 tested, 0.02% active. AID 540277; active means potentiation above 80%; inconclusive means 30% to 80%; inactive means below 30%; note: 0% is about no effect
Target sequence (Q8NER1 whole entry, looked up): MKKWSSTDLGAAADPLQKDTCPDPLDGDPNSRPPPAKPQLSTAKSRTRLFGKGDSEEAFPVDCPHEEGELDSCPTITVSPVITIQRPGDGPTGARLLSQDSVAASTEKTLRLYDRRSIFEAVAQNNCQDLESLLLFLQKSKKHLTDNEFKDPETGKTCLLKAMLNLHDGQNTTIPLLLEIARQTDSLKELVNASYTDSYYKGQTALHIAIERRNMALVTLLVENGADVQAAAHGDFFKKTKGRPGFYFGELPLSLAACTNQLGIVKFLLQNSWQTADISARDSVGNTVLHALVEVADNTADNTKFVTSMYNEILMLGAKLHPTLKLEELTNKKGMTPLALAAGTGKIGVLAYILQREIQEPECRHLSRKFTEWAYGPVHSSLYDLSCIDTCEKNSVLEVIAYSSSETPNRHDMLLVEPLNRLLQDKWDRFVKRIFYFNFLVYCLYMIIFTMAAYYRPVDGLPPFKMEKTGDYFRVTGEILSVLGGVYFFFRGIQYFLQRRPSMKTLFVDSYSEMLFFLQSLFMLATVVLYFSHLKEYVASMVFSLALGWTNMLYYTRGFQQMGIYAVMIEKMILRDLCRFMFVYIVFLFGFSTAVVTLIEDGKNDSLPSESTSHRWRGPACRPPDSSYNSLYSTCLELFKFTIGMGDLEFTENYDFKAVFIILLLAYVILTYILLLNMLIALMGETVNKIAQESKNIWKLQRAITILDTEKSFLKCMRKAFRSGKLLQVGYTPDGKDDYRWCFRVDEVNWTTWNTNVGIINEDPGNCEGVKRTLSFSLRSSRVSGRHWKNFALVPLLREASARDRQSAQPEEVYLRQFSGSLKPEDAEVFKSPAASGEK
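Cells expressing TRPV1 were dye-loaded with Fluo-8 and read kinetically: 10 s baseline, 3 min after compound (agonist portion), then 2 min after EC20 capsaicin (allosteric enhancer portion). Calcium-bound dye fluorescence at 480/520 nm.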
PINK1 expr mod – modulators of PINK1 expression; PINK1 immunofluorescence, high-content cytometry, 24 h; Potency, µM (doses to about 76.6 µM), without a hit: at the top dose activation (PINK1 increase), actives largely listed as activators; 410,000 tested, 0.2% active; active = well fitted activation curve with a large enough effect; inconclusive = small, poorly fitted or top-dose-only effect; inactive = flat fitted curve, though single readings scatter; cell line not stated here;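 note: potency is the fitted concentration of half-maximal effect; % of control where 0% means no effect; nearly all actives have a fitted effect of over 65% in size; a mitochondrial uncoupler was the plate control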
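Cells are seeded, rested 12 hours, then given compound at five concentrations or DMSO for 24 hours. After fixation, blocking and antibody staining, PINK1 amount and mitochondrial localization are scored; CCCP serves as control.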
D2 potentiator – potentiates the human D2 dopamine receptor allosterically; P14416; DiscoveRx D2 beta-arrestin cells, luminescence, 90 min; 100% = 57 uM dopamine signal; potentiation, % (test concentration not listed); 360,000 tested, 0.23% active; AID 624464; active = potentiation of 50% or more; inconclusive = 30% to 50%; inactive = 30% or less;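 note: compound concentration not given in the record; tested on top of an EC20 dose of dopamine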
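D2 cells co-treated with compound plus 50 nM dopamine (EC20) for 90 min at 37 deg C to detect potentiation. Beta-arrestin recruitment was read as enzyme-fragment luminescence after 1 h at ambient temperature. Full response was set by 57 uM dopamine.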
Six1-Eya2 inh – Six1/Eya2 interaction inhibition | 360,000 tested, 0.56% active | activity change, % (no concentration beside the values) | Q15475+O00167 | AlphaScreen GST-Six1/His-Eya2 binding, biochemical; hits give low values; control for the full effect not named in the record; in the data active = activity change below about -65%; inconclusive = about -30% to -65%; inactive = above about -30%; note: % is set by controls: 0 for no effect and ±100 for the full control effect; compound concentration not given in the record
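Six1/Eya2 binding was read as AlphaScreen signal after compounds were pinned into GST-Six1 plus His-tagged Eya2 (5X stock 250/500 nM) in pH 8.0 Tris/NaCl/TCEP buffer, beads added, then incubated 1 h, 37 C, dark.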
Sfp inh – inhibitors of Bacillus subtilis Sfp phosphopantetheinyl transferase. Q9F4F7. Biochemical Sfp PPTase activity, qHTS. Potency, µM, inactives show max response, negative = inhibition, hits mostly inhibitors. 310,000 tested, 3.5% active. AID 1490; active = well fitted inhibition curve with a large enough effect; inconclusive = small, poorly fitted or top-dose-only effect, or another doubt; inactive = no such curve, though single readings can be large or run the other way;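 note: the enzyme is Sfp with the accession as filed and its product quenches rhodamine fluorescence; potency is the fitted concentration of half-maximal effect; 0% = enzyme reaction without inhibitor and -100% = no enzyme wells; top concentration of the series not given in the record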
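Fluorescence-quenching assay with 15 nM Sfp, 5 uM rhodamine-CoA and 12.5 uM BHQ-2-labelled ybbR peptide in pH 7.6 Hepes/MgCl2 buffer. Enzyme was pre-incubated with compound for 15 min at room temperature. Rate was taken from the 30-min fluorescence change (525/598 nm).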
D2 agonist – activates the human D2 dopamine receptor | P14416 | AID 624465 | 360,000 tested, 0.084% active | DiscoveRx PathHunter D2 beta-arrestin, luminescence, 90 min; 100% = 57 uM dopamine signal | activation, % (concentration not given with the values); in the data active = activation above about 40%; inconclusive = about 15% to 40%; inactive = below about 15%; note: compound concentration not given in the record; the text of the record calls up to 30% inactive
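DiscoveRx PathHunter D2 beta-arrestin cells (2,100/well) attached overnight, then compound-stimulated 90 min at 37 C in HBSS/10 mM HEPES/0.1% Tween-20 buffer; beta-galactosidase complementation read by luminescence after 1 h at ambient temperature. Dopamine 57 uM final (EC100) as control.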
CtBP-E1A blk – inhibitors of CtBP/E1A interaction | AlphaScreen GST-E1A/His-CtBP binding, 1536-well; hits give low values; control for the full effect not named in the record | activity change, % (no concentration beside the values) | 340,000 tested, 0.49% active; in the data active means activity change below about -65%; inconclusive means about -30% to -65%; inactive means above about -30%; note: % is set by controls: 0 for no effect and ±100 for the full control effect; compound concentration not given in the record
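Homogeneous bead-based format: GST-tagged E1A captured on glutathione donor beads, His-tagged CtBP on nickel acceptor beads; compounds precede bead addition by 2 h at 37 °C.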
* hit, by the source's call; ? = inconclusive; / = not tested or not shown; & = joins results of further samples; [ ] = dose if it differs, or a comment.

SMILES	TRPV1 potentiator	PINK1 expr mod	D2 potentiator	Six1-Eya2 inh	Sfp inh	D2 agonist	CtBP-E1A blk
CC1=C(C(=O)OC2CCCCCC2)C(c2ccc(C)o2)C2=C(CCCC2=O)N1 (centres undefined)	-47	4.8%[38.3 µM]	-6	-10	1%	1.7	-11
CCCOc1ccccc1/C=N/Nc1ccnc(=O)[nH]1	-2	1.6%	-5	-13	-4%	-4.6	0
O=C(c1ccccc1NS(=O)(=O)c1ccccc1[N+](=O)[O-])N1CCCC1	-1	-1.0%	8	-1	6%	-4.0	2
CC1=C(C(=O)N2CCCCCC2)CC(CC(=O)NCCCCc2ccccc2)C(=O)N1CCC1=CCCCC1 (centres undefined)	/	?	/	-10	/	/	1
O=C(CSCc1c(Cl)cccc1Cl)NCC1CCCO1 (centres undefined)	-11	-1.5%	-12	4	2%	0.4	-3
CC1(C)C2CCC(C2)C1(C)NC(=O)CNCc1cccs1 (centres undefined)	-11	2.6%	5	-8	89µM*	12	/
Cc1ccc(Cl)c(Nc2ccccc2C(=O)O)c1Cl	10	-0.3%&1.1%	1&4	2&-4	-10%&-1%&10%&-4%	-3.2&-5.1	6&6
CCN1CCN(Cc2ccc(NC(=O)c3cc(NC(=O)c4cnnc5ccccc45)cc(OC)c3)cc2C(F)(F)F)CC1	11	-2.8%&-0.9%	-13&-20	-23&-14	4%	-4.3&-0.1	-23
O=C(CCCN1C(=O)/C(=C/c2cccs2)SC1=S)Nc1ccccc1O	3	3.9%	-2	-6	16%	-0.9	-2
COc1cc(/C=C(\C#N)c2ccccn2)ccc1OCc1ccc(Cl)cc1	3	3.8%	-11	20	?	-1.0	34
CCOCCCNC(=O)Cn1cc2c(n1)CCCC2	-8	0.9%	-4	1	-7%	-1.4	3
CCN(CC)c1ccc(NC(=O)C2=CC=CN3CCS(=O)(=O)N=C23)cc1	30	0.9%	-4	-22	/	-4.7	/
CCN(CC)c1nc(N)nc(NS(=O)(=O)c2ccc(Cl)cc2)n1	8	1.6%	5	2	-2%	0.5	5
CCCCNC(=O)C(CC)(ONc1ccccc1C(F)(F)F)c1ccccc1 (centres undefined)	-3	3.1%	-16	-29	/	-3.1	-23
Cc1cccc2nc(C(=O)Nc3cc(Cl)ccc3-n3cncn3)cn12	-6	0.5%	-15	-21	/	-2.8	/
Cc1ccc(F)c(S(=O)(=O)NC(=O)C2(C)CCN2C(=O)C2(c3ccc(Cl)cc3)CCC2)c1 (centres undefined)	/	0.7%	-6	7	/	10	14
COc1ccccc1-n1cc(CN2CCN(C3CCCC3)C(CCO)C2)cn1 (centres undefined)	-5	-0.8%	-13	1	17%	-0.6	/
Cc1ccc(C)c(NC(=O)CCC(=O)NNC(=S)Nc2ccccc2)c1	3	0.1%	-11	-1	12%	-4.3	4
CN(NC(=O)c1ccc(Cl)cc1)c1nc(-c2ccccc2)nnc1C(F)(F)F	0	?	1	9	2%	-1.8	3
COc1ccc(O)c(C(c2c(C)[nH][nH]c2=O)c2c(C)[nH][nH]c2=O)c1	10	0.6%	-3	10	14%	-0.4	/
NC(=O)c1ccsc1NC(=O)CSc1ccccc1F	0	/	-13	-1	0%	-2.0	-1
COc1ccc(S(=O)(=O)NC2CC(=O)N(c3cccc(F)c3)C2)cc1OC (centres undefined)	19	-1.8%	-1	6	/	-5.8	3
CCOCCCNC(=S)Nc1ccc(Br)cc1Cl	-6	0.6%	-3	14	3%	0.6	7
Cc1nc(SCc2ccc(F)cc2)c([N+](=O)[O-])[nH]1	6	3.2%	-15	-1	10%	-1.8	-22
CSCCC(NC(=O)c1ccccc1)C(=O)N/N=C(\C)Cc1ccccc1 (centres undefined)	-8	-0.6%	-16	5	5%	-0.8	-6
Cc1nc(NCC2CCCO2)nc2c1C(=O)CC(C)C2 (centres undefined)	3	-1.6%	-9	5	8%	-0.6	10
Cn1c2ccc(Br)cc2c2nnc(SCC(=O)O)nc21	8	-0.1%	-2	-27	-18%	0.7	/
O=C(CCN1CCCCC1)N=Nc1c(O)[nH]c2ccccc12	7	2.4%	-5	32	3%	-2.9	-4
Nn1cc(-c2ccccc2)nc1SCC(=O)N1CCN(S(=O)(=O)c2ccc(Cl)cc2)CC1	-3	-4.6%	1	-9	-22%	-4.8	-7
O=c1c(-c2cc3ccccc3o2)[n+]([O-])c2ccccc2n1OCc1ccccn1	-11	0.1%	-1	5	12%	-2.4	5
CC1CCCCN1S(=O)(=O)c1ccc(C(=O)Nc2nnc(-c3cccs3)o2)cc1 (centres undefined)	2	-0.3%	-3	-25	5%	1.4	-17
CCC(=O)Nc1ccc(S(=O)(=O)NCCc2ccccc2)cc1	?	-3.3%	-5	6	17%	1.3	-7
O=C(NC1CCS(=O)(=O)C1)c1cccc(Cl)c1 (centres undefined)	-20	1.2%	0	9	/	-3.3	1
CCC(C)(C)c1ccc(Oc2ccc(NC(=O)COC(=O)C3=COCCO3)cc2)cc1	-8	2.4%	-2	-8	36%[activator]	-2.3	-9
O=C(Nc1ccc(Cl)cc1Cl)C1CCC(=O)N1Cc1ccccc1Cl (centres undefined)	6	1.7%	-3	6	-18%	-4.0	3
Clc1ccc(CSc2nnc3ccccn23)c(Cl)c1	-3	4.0%	8	0	4%	-3.7	0

Given bar-delimited: part of the list above
molecule | TRPV1 potentiator | PINK1 expr mod | D2 potentiator | Six1-Eya2 inh | Sfp inh | D2 agonist | CtBP-E1A blk
O=C(NC1CCS(=O)(=O)C1)c1cccc(Cl)c1 (centres undefined) | -20 | 1.2% | 0 | 9 | / | -3.3 | 1
CCC(C)(C)c1ccc(Oc2ccc(NC(=O)COC(=O)C3=COCCO3)cc2)cc1 | -8 | 2.4% | -2 | -8 | 36%[activator] | -2.3 | -9

The results go on.
SMILES	TRPV1 potentiator	PINK1 expr mod	D2 potentiator	Six1-Eya2 inh	Sfp inh	D2 agonist	CtBP-E1A blk
CCOC(=O)c1sc(NC(=O)CSc2nnnn2-c2ccccc2)nc1C	2	0.0%[38.3 µM]	-12	21	10%	-0.3	49
CC(=O)N/C(=C\c1cccc([N+](=O)[O-])c1)C(=O)NC1CCCCC1	-10	3.6%	2	6	0%	-6.7	5
O=C(NCc1cccnc1)c1nnc(Cc2ccc(F)cc2)o1	/	-0.8%	-2	4	10%	-0.3	9
COc1ccc(C(=O)c2ccc(Cl)c([N+](=O)[O-])c2)cc1	0	-0.3%	2	-11	-16%	4.2	-15
O=C(Cc1ccc([N+](=O)[O-])cc1)Nc1cccc(C(=O)N2CCOCC2)c1	/	-0.3%	0	1	/	-6.2	0
CCOCCCn1c(=NC(C)=O)c(C#N)cc2c(=O)n3cccc(C)c3nc21	11	-1.0%	-4	-6	1%	0.8	-8
Cc1cc(C)n(C(=O)CCC(=O)Nc2ccc(C)c(C)c2)n1	1	0.9%	-6	-1	18%	-2.8	5
Cc1cc2c(cc1C)-c1c(ssc1=Nc1ccc(S(N)(=O)=O)cc1)C(C)(C)N2	6	5.7%	-9	-2	6%	4.0	/
Cc1cc(C)n(CC(=O)Nc2ccc(N3CCOCC3)c(Cl)c2)c(=O)c1C#N	0	0.1%	-5	7	19%	2.1	-1
CC(C)NS(=O)(=O)c1cccc2nsnc12	4	0.7%	5	12	4%	0.2	-1
CCCc1nnc(SCC(=O)Nc2nccs2)o1	10	0.0%	1	-27	-16%	-2.6	?
CN1CCN(c2nc3c(c(=O)n(C)c(=O)n3C)n2Cc2ccc(Cl)cc2)CC1	11	2.8%	-5	-10	10%	-0.6	/
CCOC(=O)C1=C(Nc2ccccc2)CC(C)(O)C(C(=O)OCC)C1c1ccc(Br)cc1 (centres undefined)	-11	22%	-24	21	1%	-3.8	0
Cc1ccc(S(=O)(=O)N2[C@@H](c3ccc(F)cc3)C(C(=O)O)=CC[C@H]2c2ccc(C(C)C)cc2)cc1	0	1.2%	-14	0	/	-1.6	3
Cc1[nH]c2ccccc2c1C(c1ccncc1)N1CCN(c2ccccc2F)CC1 (centres undefined)	-3	2.0%	-7	-11	9%	-0.3	-9
Cc1nc(-c2ccc(Br)cc2)ccc1C(=O)O	11	-0.9%	-17	0	16%	-2.3	9
CC(C)C[C@H]1CNC(=O)C(=O)N1C[C@@H]1CCCN1C[C@H](Cc1ccccc1)N1C[C@H](CC(C)C)N(CC2CCCCCC2)C(=O)C1=O	/	-0.7%	/	-2	/	/	-1
CN(C(=O)COC(=O)c1ccc(Cl)c(S(=O)(=O)N2CCCCC2)c1)C1(C#N)CCCCC1	-5	1.3%	0	2	/	-0.5	/
COC(=O)c1cc(Br)ccc1NC(=O)Nc1ccc(C)cc1	/	0.0%	-23	1	/	-4.1	-1
Cc1csc(NC(=O)c2ccc[nH]c2=O)n1	-1	-0.3%	6	-7	25%	-3.1	/
CCOc1ccc(NC(=O)c2cccc(S(=O)(=O)Nc3c(C)n(C)n(-c4ccccc4)c3=O)c2)cc1	/	1.6%	-3	0	/	2.1	4
COc1ccc(S(=O)(=O)Nc2ccc3c(c2)n(C)c(=O)n3C)cc1OC	4	0.6%	5	-19	22%	3.7	-10
CC1(C)Nc2ccccc2N(Cc2ccc([N+](=O)[O-])cc2)C1=O	-1	2.7%	-3	1	24%	-2.8	-21
CC(=O)c1c(C)[nH]c(C(=O)NCc2ccccc2)c1C	5	3.8%	-17	-4	13%	-2.8	3
C=Cn1cc[n+](CC(=O)c2cc(C(C)(C)C)c(O)c(C(C)(C)C)c2)c1	4	-0.4%	-20	-4	6%	-6.0	-2
Oc1c(N=NC(=S)Nc2ccccc2F)c2ccccc2n1Cc1ccccc1	24	3.1%	-23	-20	6%	-2.3	-19
COc1ccccc1/C=C/C(=O)NC(=S)NCC1CCCO1 (centres undefined)	8	2.1%	-8	4	1%	-3.5	-6
Cc1ccc(C)c(OCc2cc(C(=O)N3CC[C@@H]4CCCC[C@H]4C3)no2)c1	-12	10%	-1	6	?	-6.0	12
CC1=C(C(=O)OC2CCCC2)C(c2coc3ccccc3c2=O)C2=C(CC(C)(C)CC2=O)N1 (centres undefined)	/	1.5%	-9	-6	3%	-1.1	-1
O=C(CSc1ccsc1[N+](=O)[O-])Nc1cc(F)ccc1F	-3	1.0%	-7	-8	-17%	-5.8	/
Cc1n[nH]c(C)c1CCCCOc1ccc([N+](=O)[O-])cc1	-2	-0.7%	29	0	6%	8.1	/
O=C1C(Cl)=C(N2CCCCCC2)C(=O)N1c1ccccc1	?	2.4%	-3	39	1%	-3.5	31

Compounds as they come; 3.7% or so of the library scored in one or more.
